PV pol inh: poliovirus RNA polymerase inhibition; poliovirus polymerase elongation, fluorescence polarization; stronger effect = lower value; % elongation, % (compound at 16.7 µg/mL); 0.66% of 150,000 active; AID 588519; in the data active = % elongation below about 90%; note: some results filed as inactive read as strong as hits
Target sequence (P03300 1749-2209 limits assumed): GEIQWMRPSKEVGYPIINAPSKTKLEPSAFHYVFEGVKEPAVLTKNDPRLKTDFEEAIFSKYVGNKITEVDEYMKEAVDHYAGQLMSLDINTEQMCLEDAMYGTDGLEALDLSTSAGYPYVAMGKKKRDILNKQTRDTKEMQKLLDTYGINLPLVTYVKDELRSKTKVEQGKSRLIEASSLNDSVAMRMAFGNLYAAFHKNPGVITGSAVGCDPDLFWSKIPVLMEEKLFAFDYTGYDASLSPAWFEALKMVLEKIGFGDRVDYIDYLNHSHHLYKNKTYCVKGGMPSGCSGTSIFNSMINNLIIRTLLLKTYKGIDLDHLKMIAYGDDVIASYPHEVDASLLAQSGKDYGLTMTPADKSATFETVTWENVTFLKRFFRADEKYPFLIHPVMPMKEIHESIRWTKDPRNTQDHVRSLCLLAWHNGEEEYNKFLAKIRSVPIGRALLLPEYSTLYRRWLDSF
PV pol inh intensity: recorded beside PV pol inh, whose call it bears; % elongation; measured here: total intensity read-out; formula for this scale not given here;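 total fluorescence in place of polarization; lower means less elongation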
* marks the source's active call; other numbers are inactive results. This is a subset; count on the stated rates, not on these rows.

SMILES | PV pol inh | PV pol inh intensity
CCOc1ccc(NC(=O)CN2CCN(C3CCCCC3)C(=O)C2=O)cc1 | 102 | 109
Cc1ccc(Cl)cc1N1CCN(C(=O)C2CCC(CNS(=O)(=O)c3cccs3)CC2)CC1 (configuration not stated) | 110 | 113
COc1ccc(CCNC(=O)c2ccc(CS(=O)(=O)Cc3cccc(C)c3)o2)cc1OC | 114 | 113
CCOc1ccc(NC(=O)Cn2nc(-c3ccncc3)ccc2=O)cc1 | 108 | 114
CCOC(=O)c1ccccc1NC(=O)c1sc2ncn(Cc3cccc(F)c3)c(=O)c2c1C | 108 | 112
CCOc1ccc(-c2cc(NC(=O)Nc3ccccc3C(F)(F)F)c(C(=O)OC)s2)cc1 | 107 | 111
CN(C(=O)CSc1nc2ccccc2n1Cc1ccccc1C#N)c1ccccc1 | 102 | 108
CCOc1ccc(N(C)S(=O)(=O)c2cc(-c3cc(C)no3)ccc2OC)cc1 | 98 | 101
Cc1ccc(Cl)cc1N1CCN(C(=O)CCc2nnc3n(C)c(=O)c4ccccc4n23)CC1 | 103 | 103
CCc1ccc(N2CCn3c2nc2c3c(=O)n(Cc3c(F)cccc3Cl)c(=O)n2C)cc1 | 111 | 111
CCCn1c(=O)n(-c2cc(Cl)c(OC)cc2OC)c(=O)c2c3c(sc21)CN(C(C)=O)CC3 | 103 | 107
O=C(Nc1ccc(F)c(F)c1)c1cc(S(=O)(=O)NCc2ccc3c(c2)OCO3)ccc1F | 112 | 111
Cc1c(C(=O)OC2CCCCCC2)[nH]c2c1C(=O)CC(c1ccccc1Cl)C2 (configuration not stated) | 108 | 111
COc1ccc(CCNC(=O)CCCCn2c(=O)c3ccccc3n(Cc3cccc(C)c3)c2=O)cc1OC | 107 | 111
Cc1cccc(NC(=O)C2CCN(c3nnc(C)c4c(C)n(-c5ccccc5)nc34)CC2)c1C | 105 | 108
Cc1ccc(-n2ncc(C(=O)N3CCN(c4ccccn4)CC3)c2C2CCN(C(=O)OC(C)(C)C)CC2)cc1 | 115 | 112
Cc1ccc(CNC(=O)CCNS(=O)(=O)c2cccc3nsnc23)cc1 | 106 | 111
CCOC(=O)c1c(C)oc2c1cc(NS(=O)(=O)c1ccc(C)cc1)c1ccccc12 | 107 | 115
COC(=O)c1ccc(NC(=O)C(C)N2Cc3ccccc3C2=O)cc1 (configuration not stated) | 102 | 109
COc1ccc(-c2cc(C(=O)NCCc3ccc(OC)c(OC)c3)c3ccccc3n2)cc1 | 105 | 105
COc1ccc(CNC(=O)CCC(=O)N2CCSc3ccccc32)cc1 | 112 | 112
CCOC(=O)c1ccc(N2C(=O)c3[nH]nc(-c4ccc(OCC)cc4)c3C2c2ccc(OC)cc2OC)cc1 (configuration not stated) | 107 | 105
COc1cc(CCC(=O)NCc2ccc3c(c2)CCN3C(=O)c2cccc(C)c2)cc(OC)c1OC | 99 | 95
CCOC(=O)CSc1ncnc2c1c(-c1ccccc1)cn2-c1ccc(OC)cc1 | 104 | 104
Cc1cc(=O)n2nc(N3CCC(C(=O)NCc4ccccc4)CC3)sc2n1 | 109 | 114
N#C/C(=C\c1ccc(F)cc1)C(=O)NCC1CCCO1 (configuration not stated) | 109 | 109
Cc1cc(C)c(S(=O)(=O)NCCc2csc3nc(-c4ccc(Cl)cc4)nn23)c(C)c1 | 106 | 109
CCOc1ccccc1C(=O)NCc1nc2cccnc2n1Cc1ccc(C)cc1 | 109 | 112
COc1ccc(C2NC(=O)N(C)C3=C2C(=O)N(c2cccc(C(=O)O)c2)C3)cc1 (configuration not stated) | 99 | 102
COc1ccc(CNC(=O)C2CCCN(C(=O)c3cnn(-c4ccc(F)cc4)c3-n3cccc3)C2)cc1 (configuration not stated) | 108 | 100
Cc1ccc(CN(C(=O)COc2ccc(Cl)cc2)c2ccccn2)o1 | 108 | 105
CCCn1c(=O)sc2cc(NC(=O)c3ccc(OC)c(Br)c3)ccc21 | 108 | 110
CCOCCOC(=O)c1ccc(NC(=O)/C=C/c2ccc(OC)c(OC)c2)cc1 | 101 | 100
COc1ccc(-c2cc(C(=O)Nc3c(Cl)cccc3Cl)no2)cc1OC | 106 | 111
COc1cccc(-c2noc(-c3cc(C(C)C)[nH]n3)n2)c1OC | 101 | 105
Cc1ccc(CN2CCSc3ccc(C(=O)Nc4ccc(F)cc4F)cc32)cc1 | 108 | 108
CN(Cc1ccccc1)C(=O)c1nc(-c2ccc(Cl)cc2)n2c1CCCCC2 | 107 | 108
COc1ccccc1N1CCN(C(=O)Cn2c(=O)n3nc(-c4cccc(F)c4)nc3c3ccccc32)CC1 | 100 | 98
CC(=O)N1CCc2c(sc3c2c(=O)n(CCc2ccccc2)c(=O)n3Cc2ccc(Cl)cc2)C1 | 108 | 114
Cc1ccc(S(=O)Cc2nc(-c3ccc(C(=O)NC(C)c4ccccc4)cc3)oc2C)cc1 (configuration not stated) | 112 | 114
CCN(C(=O)Cn1nnc2sc3c(c2c1=O)CCC(C(C)(C)C)C3)c1cccc(C)c1 (configuration not stated) | 110 | 116
CC(CNC(=O)c1nnc(Cc2cccc(F)c2)o1)c1ccccc1 (configuration not stated) | 111 | 113
O=C(Cn1ncc2c3ccccc3n(Cc3ccc(F)cc3)c2c1=O)NCCC1=CCCCC1 | 110 | 108
COc1ccc(N2C(=O)NC(NS(=O)(=O)c3ccc(NC(C)=O)cc3)(C(F)(F)F)C2=O)cc1 (configuration not stated) | 102 | 104
Cc1ccc(NC(=O)CN(C)S(=O)(=O)c2cnc[nH]2)cc1 | 107 | 110
CC(=O)c1ccc(NC(=O)c2ccc(-c3ccc(Cl)cc3)o2)cc1 | 102 | 105
O=C(CSc1nc(-c2cccc(F)c2)[nH]c1-c1ccccc1)Nc1ccc2c(c1)OCCO2 | 114 | 110
COc1ccc(-c2cc(C)no2)cc1S(=O)(=O)NCc1ccco1 | 98 | 96
CN1c2ccc(Cl)cc2-c2nc(SCC(=O)Nc3cc(F)ccc3F)ncc2S1(=O)=O | 102 | 110
Cc1oc(-c2ccc(Cl)cc2)nc1CS(=O)CC(=O)NCCc1ccccc1 (configuration not stated) | 102 | 109
COc1ccccc1Cc1nc2ccccc2nc1SCC(=O)NCc1ccc(C)cc1 | 111 | 105
COc1ccccc1NC(=O)Cn1nnc(C(=O)NCc2cccs2)c1N | 109 | 108
Cc1ccc2c(=O)cc(C(=O)Nc3c(C(=O)Nc4cccc(Cl)c4)oc4ccccc34)oc2c1 | 106 | 113
COc1cc(NC(=O)CCS(=O)(=O)c2nc(-c3cccs3)cc(C(F)(F)F)n2)cc(OC)c1OC | 109 | 113
CCCCc1nn2c(=O)cc(COC(=O)C(C)Oc3ccccc3)nc2s1 (configuration not stated) | 110 | 110
Cc1ccccc1OCC(=O)Nc1ccc2nc(SCC(=O)N3CCCC3)sc2c1 | 116 | 115
CCOC(=O)c1ccc(N2C(=O)c3n[nH]c(-c4ccco4)c3C2c2ccc(O)cc2)cc1 (configuration not stated) | 110 | 110
Cc1ccc(CN(C(=O)COc2ccc([N+](=O)[O-])cc2)c2ccccn2)cc1 | 162 | 95
CCOc1ccc(CNC(=O)C2=Cc3cc(Br)ccc3OC2)cc1OC | 100 | 97
Cc1sc(-c2cc3c([nH]c2=O)CC(c2ccccc2)CC3=O)nc1-c1ccc(Cl)cc1 (configuration not stated) | 111 | 113

3 entries from above, tab-delimited.
SMILES	PV pol inh	PV pol inh intensity
COc1cc(CCC(=O)NCc2ccc3c(c2)CCN3C(=O)c2cccc(C)c2)cc(OC)c1OC	99	95
CCOC(=O)CSc1ncnc2c1c(-c1ccccc1)cn2-c1ccc(OC)cc1	104	104
Cc1cc(=O)n2nc(N3CCC(C(=O)NCc4ccccc4)CC3)sc2n1	109	114

(listing goes on)
SMILES | PV pol inh | PV pol inh intensity
COc1cccc(NC(=O)Cn2c(=O)n(CCc3ccc(OC)c(OC)c3)c(=O)c3ccccc32)c1 | 105 | 108
COc1cc(OC)cc(N2C(=O)CSC23C(=O)Nc2ccccc23)c1 (configuration not stated) | 106 | 110
Cc1ccc(Cl)cc1N1CCN(C(=O)CCCCCn2c(=O)[nH]c3ccccc3c2=O)CC1 | 103 | 111
O=C(CN1CCCN(Cc2ccccc2Cl)S1(=O)=O)NCc1ccccc1 | 112 | 108
O=C(CNC(=O)c1ccc(Cl)cc1)OCc1cc(=O)n2nc(C3CCCCC3)sc2n1 | 102 | 101
COc1cccc(N2CCN(C(=O)C3Cc4ccccc4N3C(C)=O)CC2)c1 (configuration not stated) | 108 | 114
O=C(NC1CC(=O)N(c2ccccc2)C1)c1ccc(S(=O)(=O)N2CCCCC2)cc1 (configuration not stated) | 101 | 107
COC(=O)c1ccc(NC(=O)CN2CCN(c3ccc(Cl)cc3)CC2)cc1 | 111 | 114
COc1cc(C2c3c(oc4ccccc4c3=O)C(=O)N2Cc2ccc(C)cc2)ccc1O (configuration not stated) | 105 | 108
Cc1cccc(Cn2cc(S(=O)(=O)c3ccc(Cl)cc3)c(=O)c3cc4c(cc32)OCO4)c1 | 99 | 100
O=C(NCc1ccccc1Cl)c1ccc2c(c1)NC(=O)C(CS(=O)(=O)Cc1ccc(F)cc1Cl)N2 (configuration not stated) | 90 | 268
CCCCNC(=O)c1cc2c(=O)n3cccc(C)c3nc2s1 | 106 | 99
COc1ccccc1NC(=O)c1cc2c(-c3ccccc3)nn(-c3ccccc3)c2s1 | 105 | 105
CCOc1ccc(CCNC(=O)CS(=O)(=O)Cc2nc(-c3ccc(OC)cc3)oc2C)cc1 | 102 | 102
CCOc1ccc(Nc2nc(Nc3ccc(OCC)cc3)nc(N3CCOCC3)n2)cc1 | 109 | 112
COc1cccc(-c2nc(SCC(=O)NCc3ccco3)c3c(=O)n(C)c(=O)n(C)c3n2)c1 | 104 | 112
O=S(=O)(Nc1ccc(-c2ccc(N3CCCC3)nn2)cc1)c1cccc(C(F)(F)F)c1 | 99 | 97
CCn1c(=O)cc(OCC(=O)Nc2ccc(C)c(F)c2)c2ccccc21 | 106 | 107
CCCOC(=O)c1c(NC(=O)c2cc3ccccc3c(=O)o2)sc2c1CCC(C)C2 (configuration not stated) | 103 | 103
COc1ccc(CC(=O)Nc2sc3c(c2C(=O)Nc2ccccc2)CCCCC3)cc1 | 100 | 104

Given as labelled records: 4 of the compounds above.
> O=C(CN1CCCN(Cc2ccccc2Cl)S1(=O)=O)NCc1ccccc1
- PV pol inh: 112
- PV pol inh intensity: 108

> CCn1c(=O)cc(OCC(=O)Nc2ccc(C)c(F)c2)c2ccccc21
- PV pol inh: 106
- PV pol inh intensity: 107

> CCCOC(=O)c1c(NC(=O)c2cc3ccccc3c(=O)o2)sc2c1CCC(C)C2 (configuration not stated)
- PV pol inh: 103
- PV pol inh intensity: 103

> CCCCNC(=O)c1cc2c(=O)n3cccc(C)c3nc2s1
- PV pol inh: 106
- PV pol inh intensity: 99

(cont.)
SMILES | PV pol inh | PV pol inh intensity
COCCNC(=O)C(=O)Nc1c2c(nn1-c1ccccc1)CS(=O)(=O)C2 | 105 | 107
Cc1ccc(-c2nc3c4cnn(-c5cc(Cl)ccc5Cl)c4ncn3n2)cc1 | 114 | 112
Cc1ccc2nc3c(cc(C(=O)NC4CCCC4)c(=N)n3C(C)C)c(=O)n2c1 | 96 | 101
COc1ccc(Br)cc1CNC(=O)c1cnc2sc(N3CCC(C)CC3)nn2c1=O | 104 | 110
NS(=O)(=O)c1ccc(NC(=O)C(=O)Nc2ccc3nc4n(c(=O)c3c2)CCCCC4)cc1 | 107 | 105
